PV pol inh: poliovirus RdRp elongation inhibitors, primary screen, biochemical, fluorescence polarization, total intensity | % elongation, % (compound at 16.7 µg/mL) | actives 0.66% (n = 150,000) | AID 588519, 2011 | poliovirus polymerase elongation; stronger effect = lower value; in the data active = % elongation below about 90%; note: some results filed as inactive read as strong as hits
Target sequence (P03300 1749-2209 limits assumed): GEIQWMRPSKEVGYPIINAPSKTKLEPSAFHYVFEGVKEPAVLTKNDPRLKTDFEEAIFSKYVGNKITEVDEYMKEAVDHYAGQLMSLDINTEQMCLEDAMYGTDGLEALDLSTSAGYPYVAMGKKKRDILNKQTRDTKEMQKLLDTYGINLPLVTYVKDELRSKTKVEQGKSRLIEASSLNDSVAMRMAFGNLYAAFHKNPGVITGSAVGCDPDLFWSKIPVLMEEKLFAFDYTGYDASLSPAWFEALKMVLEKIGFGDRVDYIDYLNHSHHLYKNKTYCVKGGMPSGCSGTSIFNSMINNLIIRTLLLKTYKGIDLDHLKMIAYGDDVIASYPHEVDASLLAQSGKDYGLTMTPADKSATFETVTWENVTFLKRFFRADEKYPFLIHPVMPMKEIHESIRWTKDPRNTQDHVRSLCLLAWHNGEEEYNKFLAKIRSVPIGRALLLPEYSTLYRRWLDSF
PV pol inh intensity: also measured in PV pol inh; calls as there; % elongation; measured here: total intensity read-out; formula for this scale not given here;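 total fluorescence in place of polarization; lower means less elongation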
The depositor's hits bear a star.

SMILES	PV pol inh	PV pol inh intensity
Cc1cccc(NC(=O)c2ccc3snnc3c2)c1C	109	113
COC(=O)c1cc2oc(C)cc2n1CC(=O)Nc1ccc(C)cc1C	108	110
COC(=O)c1ccccc1NC(=O)c1ccc(=O)n(Cc2cccc(C)c2)c1	106	107
COc1ccc(CNc2nc(-c3ccco3)nn2S(=O)(=O)c2ccc3ccccc3c2)cc1OC	107	110
CCc1ccccc1NC(=O)CSc1nnc(-c2ccccc2)c(-c2ccccc2)n1	112	116
CCC1CN(C(=O)N2CCC(C(=O)N3CCN(c4cccc(C)c4C)CC3)CC2)c2ccccc2O1 (stereo not given)	112	114
COc1ccc(N2CCN(C(=O)c3c(C)nn(-c4ccc(F)cc4)c3-n3cccc3)CC2)cc1	108	113
CCN(C(=O)Cn1c(=O)oc2cc(Cl)ccc21)c1cccc(C(F)(F)F)c1	82*	86*
CC(C)CCNC(=O)c1ccc2c(c1)NC(=O)C(CS(=O)(=O)Cc1ccc(F)cc1)N2 (stereo not given)	124	134
O=C(CSc1ncccc1C(=O)Oc1ccccc1Cl)Nc1ccccc1Cl	106	104
O=C(CCS(=O)(=O)c1cccs1)Nc1ccc(C(=O)Nc2ccccc2F)cc1	106	108
COc1ccc(OC)c(-c2cc(C(=O)Nc3c(C)nn(Cc4ccc(C)cc4)c3C)no2)c1	104	106
COc1cc(OC)c2c(C)c(CC(=O)NCCc3ccccc3OC)c(=O)oc2c1	105	102
COc1ccc(-c2nc(CNS(=O)(=O)c3cccc(F)c3)cs2)cc1	106	112
COc1ccc(Cl)cc1NC(=O)CN1c2ccccc2S(=O)(=O)c2ccccc21	107	114
Cc1ccc(C(=O)Nc2cccc(C(=O)OCc3cc(=O)n4nc(C5CC5)sc4n3)c2)cc1	104	112
CCOc1ccc(-c2c(C)nn3c(C)c(C(=O)NCCc4ccc(C)cc4)cnc23)cc1OCC	112	112
COc1ccc(CCNC(=O)Cn2c(=O)n(-c3cc(OC)c(OC)c(OC)c3)c(=O)c3ccccc32)cc1OC	106	106
Cc1noc2ncnc(NCc3ccccc3Cl)c12	104	99
COc1cc(C(=O)Nc2ccccc2OCc2cc(=O)n3c(C)csc3n2)cc(OC)c1OC	112	111
CCOc1ccc(NC(=O)c2c(NC(=O)c3ccco3)sc3c2CCC(C(C)(C)C)C3)cc1 (stereo not given)	104	104
CCCCC(CC)CNC(=O)CCCCCn1c(=O)[nH]c2ccsc2c1=O (stereo not given)	111	113
CCN(C(=O)CCS(=O)(=O)c1cc(Br)cc2c1N(C(=O)C1CC1)CC2)c1cccc(C)c1	109	111
COC(=O)c1cc2occc2n1Cc1nc(-c2ccccc2C)oc1C	107	112
Cc1cccc(-c2nc(C)c(CCNC(=O)C(=O)Nc3c(C)cc(C)cc3C)s2)c1	111	112
CCc1ccc(NC(=O)CCCc2nnc3n(C(C)CC)c(=O)c4sccc4n23)cc1 (stereo not given)	115	122
COc1ccc(-n2c(=O)c3c4c(sc3n(Cc3ccccc3)c2=O)CCC4)c(OC)c1	110	112
O=C(NCc1cccnc1)C(=O)NCC(c1cccnc1)N1CCN(c2ccc(F)cc2)CC1 (stereo not given)	110	109
COc1ccc2[nH]cc(CCNC(=O)c3cnn(-c4ccccc4Cl)c3C3CCN(C(=O)OC(C)(C)C)CC3)c2c1	103	106
Cc1cc(C)cc(NC(=O)C(Cc2ccccc2)N2Cc3ccccc3C2=O)c1 (stereo not given)	101	100
COC(=O)c1cccc(Nc2c(-c3ccc(OC)cc3)nc3nc[nH]n23)c1	103	121
Cc1nn2c(C)c(C(=O)NC(C)c3ccccc3)cnc2c1-c1ccc(F)cc1 (stereo not given)	105	101
O=C(O)c1cccc(NC(=O)c2cccc(S(=O)(=O)Nc3cccc(C(=O)O)c3)c2)c1	103	102
Cc1cc(C)c(S(=O)(=O)Nc2cc(-c3cn4ccccc4n3)ccc2C)cc1C	106	109
CN(C(=O)Cn1nc(Cc2cccnc2)c2ccccc2c1=O)c1cccc(C(F)(F)F)c1	106	110
CCc1nn2c(=O)cc(COc3ccc(/C=C(\C#N)C(=O)Nc4ccc(F)cc4)cc3OC)nc2s1	106	103
Cc1ccc(NC(=O)CSc2nc3c([nH]c4ccccc43)c(=O)n2-c2ccccc2)c(C)c1	109	111
Cc1ccc(-n2ncc(C(=O)NCCCN3CCN(C)CC3)c2C2CCN(C(=O)OC(C)(C)C)CC2)cc1	109	112
Cc1ccc(-n2cc(C(=O)Oc3ccc(F)cc3)c3ccccc3c2=O)cc1	106	108
Cc1ccccc1NC(=O)CN(c1ccc(Cl)cc1Cl)S(=O)(=O)c1ccccc1	103	105
CC(C)(C)c1ccc(OCC(=O)NCC2(N3CCOCC3)CCCCC2)cc1	110	103
Cn1ncc2c(N3CCN(c4cccc(Cl)c4)CC3)ncnc21	104	109
Cc1nc(C)c(-c2ccc(SCC(=O)Nc3ccc(Br)cc3)nn2)s1	104	107
Cn1c2ccccc2c2cnn(CC(=O)NCCCN3CCCCC3)c(=O)c21	108	111
Cc1nc(-c2ccc(F)cc2)sc1CCNC(=O)c1ccccc1	103	108
CN(C)c1ccc(CN(Cc2ccco2)C(=O)COc2ccc(F)cc2)cc1	98	88
COc1ccc(NCc2cc3cc4c(cc3n(CC(=O)Nc3ccc(F)cc3F)c2=O)OCO4)cc1	106	112
O=C(Nc1nc2ccc(Cl)cc2s1)c1cc(=O)c2ccccc2o1	113	114
CCOc1ccccc1C(=O)Nc1c(C(=O)Nc2ccc(F)cc2)oc2ccccc12	103	108
O=C(Nc1ccc(F)cc1F)c1ccc2c(c1)CCN2S(=O)(=O)c1ccc(Cl)cc1	105	109
CC1CCC(NC(=O)Cn2ncc3c4ccccc4n(Cc4ccc(Cl)cc4)c3c2=O)CC1 (stereo not given)	133	141
Cc1ccc(CNc2nc3ccccc3c3nc(-c4cccc(C)c4)nn23)cc1	102	107
Cc1ccc(-n2ncc3c(NCCCN4CCOCC4)ncnc32)cc1Cl	108	111
Cc1ccc(S(=O)(=O)NCCc2csc3nc(-c4ccccc4C)nn23)cc1	101	109
COc1cccc(CNC(=O)c2cc(=O)[nH]c3ccc(S(=O)(=O)N4CCCC4)cc23)c1	107	110
COc1ccc(-n2cnc3cc(C(=O)NC4CCCCCC4)ccc32)cc1	106	101
CCc1ccc(NC(=O)C2CCCN(S(=O)(=O)c3cccc4nsnc34)C2)cc1 (stereo not given)	111	114
CCCCN1C(=O)CN(C2CCCCCC2)C(=O)C1c1ccc(OCCC)c(OC)c1 (stereo not given)	107	110
CCc1ccc(CNC(=O)c2sc3nc[nH]c(=O)c3c2C)cc1	109	111
COc1ccc(N2CCN(S(=O)(=O)CCNC(=O)c3c(F)cccc3Cl)CC2)cc1	110	106

Grouped by structure: the entries above containing a tert-butyl group
SMILES	PV pol inh	PV pol inh intensity
CCOc1ccc(NC(=O)c2c(NC(=O)c3ccco3)sc3c2CCC(C(C)(C)C)C3)cc1 (stereo not given)	104	104
COc1ccc2[nH]cc(CCNC(=O)c3cnn(-c4ccccc4Cl)c3C3CCN(C(=O)OC(C)(C)C)CC3)c2c1	103	106
Cc1ccc(-n2ncc(C(=O)NCCCN3CCN(C)CC3)c2C2CCN(C(=O)OC(C)(C)C)CC2)cc1	109	112
CC(C)(C)c1ccc(OCC(=O)NCC2(N3CCOCC3)CCCCC2)cc1	110	103

Carrying on.
SMILES	PV pol inh	PV pol inh intensity
CCOC(=O)c1ccc(NS(=O)(=O)c2cc3c(cc2C)n(C)c(=O)c(=O)n3C)cc1	110	113
COc1ccc(S(=O)(=O)N2CCCCC2)cc1C(=O)Nc1cccc(C(F)(F)F)c1	112	109
Cc1ccc2c(c1)C(c1ccccc1)N(C(=O)COc1ccc(Cl)cc1Cl)CC(=O)N2 (stereo not given)	108	107
COc1ccc(-c2nc(SCC(=O)NC3CCCC3)c(-c3ccc(OC)cc3)[nH]2)cc1	114	115
CCOC(=O)N1CCc2c(sc3c2c(=O)n(Cc2ccccc2)c(=O)n3Cc2c(F)cccc2Cl)C1	106	109
CCOc1ccc(N(C(C)C(=O)NCCSc2ccc(C)cc2)S(C)(=O)=O)cc1 (stereo not given)	107	103
CCOc1ccc(NC(=O)Cn2cc(S(=O)(=O)NC)c(S(=O)(=O)NC)c2)cc1	104	110
CCOC(=O)c1cc2c(=O)n3ccccc3nc2n(CC2CCCO2)c1=NC(=O)c1ccccc1C (stereo not given)	109	112
CC(C)CCn1c(=O)c2sccc2n2c(CCCC(=O)Nc3ccc(C(C)C)cc3)nnc12	108	105
CN(C(=O)c1ccc2c(Cl)c3c(nc2c1)CCC3)c1ccccc1F	110	105
CCOC(=O)c1ccc(NC(=O)Nc2ccc3snnc3c2)cc1	106	101
COCCNC(=O)Cn1c(=O)n(-c2ccc(C)c(C)c2)c(=O)c2c3c(sc21)CCCCC3	110	108
Cc1ccc(NC(=O)Cn2nc(C)n3cccc3c2=O)c(C)c1	115	111
Cc1ccc2sc(N(Cc3cccnc3)C(=O)Cc3ccccc3)nc2c1C	114	109
COc1ccccc1NC(=O)C1=C(C)Nc2nc(SCc3ccccc3)nn2C1c1cccnc1 (stereo not given)	104	108
COc1cccc(N2CCN(c3ncnc4onc(-c5ccc(F)cc5)c34)CC2)c1	107	107
CC(=O)Nc1ccc(N(C(=O)Cn2nnc3ccccc32)C(C(=O)NCc2ccccc2)c2ccc(C)cc2)cc1 (stereo not given)	108	112
COc1ccc(-c2[nH]c(-c3cccc(OC)c3)nc2SCC(=O)NC2CCCC2)cc1	113	109
CCOc1ccc(-n2c(=O)c3sc4ccccc4c3n(Cc3cccc(C)c3)c2=O)cc1	107	102
COc1ccccc1CNc1ncnc2c1c(-c1ccccc1)cn2-c1ccc(Br)cc1	106	111
COc1ccc(CNC(=O)CC(C)n2nc(C)cc2C)cc1 (stereo not given)	107	108
Cc1ccc2c(c1)c1c(c(=O)n(-c3cccc(Cl)c3)c(=O)n1CC(=O)N1CCCC1)n2C	106	108
Cc1ccc(S(=O)(=O)N2CCCC2C(=O)Nc2ccc(Br)cc2)cc1 (stereo not given)	117	108
O=C(Nc1cccc(C(F)(F)F)c1)c1cc(CN2CCOCC2)on1	105	102
O=C(NCc1ccc(F)cc1)c1ccc2c(c1)N(Cc1c(F)cccc1Cl)C(=O)CS2	106	108
COc1ccc(NC(=O)CSc2ncc3c(n2)-c2ccccc2N(C)S3(=O)=O)cc1Cl	107	116
COCCn1c(=N)c(C(=O)NC(C)c2ccccc2)cc2c(=O)n3cc(C)ccc3nc21 (stereo not given)	115	115
O=C(CSc1nc2ccccc2nc1Cc1ccc(Cl)cc1)NCCc1ccccc1	107	109
CN(C(=O)CSc1nnc(COc2ccccc2)o1)c1ccccc1	103	100
Cn1c(=O)n(C)c2cc(N3CCOCC3)c(NS(=O)(=O)c3ccc(Br)cc3)cc21	105	106

Compounds above that have two or more sulfur atoms:
SMILES	PV pol inh	PV pol inh intensity
O=C(CCS(=O)(=O)c1cccs1)Nc1ccc(C(=O)Nc2ccccc2F)cc1	106	108
COc1ccc(-c2nc(CNS(=O)(=O)c3cccc(F)c3)cs2)cc1	106	112
Cc1nc(C)c(-c2ccc(SCC(=O)Nc3ccc(Br)cc3)nn2)s1	104	107
Cc1ccc(S(=O)(=O)NCCc2csc3nc(-c4ccccc4C)nn23)cc1	101	109
CCc1ccc(NC(=O)C2CCCN(S(=O)(=O)c3cccc4nsnc34)C2)cc1 (stereo not given)	111	114
CCOc1ccc(N(C(C)C(=O)NCCSc2ccc(C)cc2)S(C)(=O)=O)cc1 (stereo not given)	107	103
CCOc1ccc(NC(=O)Cn2cc(S(=O)(=O)NC)c(S(=O)(=O)NC)c2)cc1	104	110
COc1ccc(NC(=O)CSc2ncc3c(n2)-c2ccccc2N(C)S3(=O)=O)cc1Cl	107	116

Other structures:
SMILES	PV pol inh	PV pol inh intensity
COc1ccc(Nc2nc(N)nc(CSc3nc4cc(OC)ccc4s3)n2)cc1	105	103
O=C(Cn1cnc2ccccc2c1=O)NCCC(=O)Nc1ccc(F)cc1	103	104
Cc1ccc(-c2nnc(Nc3ccc(Br)cc3)c3ccccc23)cc1S(=O)(=O)NCC1CCCO1 (stereo not given)	106	108
COc1ccc2c(c1)cc1c(=O)n(CC(=O)NCCCOC(C)C)nc(C)n12	105	108
CCC(=O)N1c2ccc(S(=O)(=O)CCC(=O)NCc3ccccc3OC)cc2CC1C (stereo not given)	110	114
Cc1ccc(NC(=O)CSc2nc(C)cc(C)c2C(=O)Nc2cccc(C)c2)cc1	109	108
Cc1cc(-c2ccc(C)c(S(=O)(=O)NCCc3ccc(S(N)(=O)=O)cc3)c2)on1	108	111
O=C(NCc1ccccc1)c1ccc(NC(=O)c2nsc3ccccc23)cc1	104	110
COc1ccc(CCN2CCC(CNC(=O)c3cnn(-c4ccc(C)cc4)c3C3CCN(C(=O)OC(C)(C)C)CC3)CC2)cc1	106	107
Cc1nc2cccnc2n1-c1cccc(C(=O)NCc2ccc(OC(C)C)cc2)c1	105	110
O=C(CC1N=C2c3ccccc3N=C(SCc3cccc(F)c3)N2C1=O)NCc1ccc2c(c1)OCO2 (stereo not given)	108	106
Cc1ccc(S(=O)(=O)c2nc(-c3cccc(Cl)c3)oc2NCc2ccccc2)cc1	100	98
COc1cc2c(cc1NC(=O)COc1ccc(Cl)cc1)oc1ccccc12	106	106
COc1ccc(N(CC(=O)N2CCN(c3cccc(Cl)c3)CC2)S(=O)(=O)c2c(C)noc2C)cc1	107	109
Cc1ccccc1C(=O)Nc1ccccc1C(=O)OCc1cc(=O)n2ccsc2n1	110	110
CCN(CC)c1ccc(NC(=O)CCc2c(C)nc3ncnn3c2C)c(C)c1	105	105
Cc1ccc(NC(=O)C(Cc2ccccc2)NS(=O)(=O)c2ccc3c(c2)c(=O)n(C)c(=O)n3C)c(C)c1 (stereo not given)	106	109

High-throughput results (PubChem)

These rows are one share of the data, so the mix of outcomes need not match the whole.
